# Source: PubChem BioAssay (Fisher Drug Discovery Resource Center)
# NPYLR7 ag = activates Aedes aegypti NPYLR7 receptor. activation, % at 10 µM. HEK293T NPYLR7/Galpha15, GCaMP6s calcium fluorescence. AID 1259423. 270,000 compounds, 0.15% hits; in the data active means activation above about 40%;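 further: 0% = vehicle and 100% = reference agonist at the receptor; some compounds past the cut are filed as inactive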
# NPYLR7 ag max-min = recorded beside NPYLR7 ag, whose call it bears; activation, %; measured here: Max-Min RFU normalised activation; some inactives read as strong as hits;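 span of the calcium signal over five minutes; 0% = vehicle and 100% = native peptide agonist; compound fluorescence can raise it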
# Numbers without * were called inactive.
1: Cc1cc(CN2CCC(CNC(=O)Nc3ccccc3)C2)oc1C (stereo unspecified)
2: N#Cc1nc(-c2ccc(S(=O)(=O)N3CCCCCC3)cc2)oc1N1CCc2ccccc2C1
3: CCOC(=O)CCN(CC1CC1)C(=O)c1ccc2ccccc2n1
4: CCOC(=O)C1(Cc2cccc(Cl)c2)CCCN(C(=O)CCn2cccn2)C1 (stereo unspecified)
5: Cc1nc(-c2cccc(S(=O)(=O)N3CCCC4(CCNC4)C3)c2)no1 (stereo unspecified)
6: Cc1nc2ccccn2c1P(c1c(C)nc2ccccn12)c1c(C)nc2ccccn12
7: Cc1csc(C(C)N(C)C(=O)CC2(c3ccccc3)CC(=O)N(Cc3ccncc3)C2=O)n1 (stereo unspecified)
8: COC(=O)c1cc(NC(=O)c2cc(-c3cccs3)nc3onc(C)c23)cc(C(=O)OC)c1
entry no. | 1 | 2 | 3 | 4 | 5 | 6 | 7 | 8
NPYLR7 ag | 7 | 1 | 4 | 2 | 2 | 4 | 22 | -2
NPYLR7 ag max-min | 7 | 28 | 3 | -1 | 1 | 2 | 6 | -7

9: COc1ccccc1-c1cc(NC(=O)C2C(C=C(C)C)C2(C)C)n[nH]1 (stereo unspecified)
10: CC1=CCC=CC1C(=O)N1CCOC(COc2ccccc2)C1 (stereo unspecified)
11: COc1ccc(S(=O)(=O)NCc2ccc(C)cc2)c2ccccc12
12: CO[C@H]1CN(Cc2nccn2C(C)C)CC[C@H]1N
13: O=C(Nc1cccc(/C=C/c2ccccn2)c1)C1CCCC1
14: O=C(CCN(Cc1ccco1)c1nc(-c2ccccc2Cl)nc2ccccc12)NCc1cccc(C(F)(F)F)c1
15: Cc1c(C(=O)N2CCOC3(CNCCOC3)C2)n(C)c2c(C)cccc12 (stereo unspecified)
16: Cc1ccc(NC(=O)NC(C)C2CCN(C)CC2)cc1OC(F)F (stereo unspecified)
entry no. | 9 | 10 | 11 | 12 | 13 | 14 | 15 | 16
NPYLR7 ag | 1 | -21 | -2 | 10 | -2 | 16 | 4 | 9
NPYLR7 ag max-min | -1 | -15 | -5 | 8 | -2 | 21 | 1 | 5

17: CCOC(=O)CCc1n[nH]c(=O)c2ccccc12
18: Cc1ccc(CN2CC(C(=O)N(C)Cc3noc(C)n3)CC2=O)cc1 (stereo unspecified)
19: O=C(c1cc(Cl)ccc1OC1CCN(C2CCCC2)CC1)N1CCSCC1
20: COc1ccccc1N1CC(NC(=O)CCc2c(C)nn(C)c2C)CC1=O (stereo unspecified)
21: COc1ccc(OC)c(NC(=O)C(C)OC(=O)c2ccsc2)c1 (stereo unspecified)
22: COc1ccc(CN(Cc2ccco2)C(=O)CCn2c(=O)oc3ccccc32)c2ccccc12
23: Nc1c(CC(=O)O)cccc1C(=O)c1ccc(Br)cc1
24: CCCCCCC(=O)N(CCCOC)CC(=O)N1CCc2sccc2C1c1ccc(F)cc1 (stereo unspecified)
entry no. | 17 | 18 | 19 | 20 | 21 | 22 | 23 | 24
NPYLR7 ag | 7 | -1 | -2 | 10 | 1 | -7 | 0 | 15
NPYLR7 ag max-min | -2 | -1 | -7 | 8 | -2 | -12 | -5 | 24

# Full records as entered above. Screens in order: NPYLR7 ag, NPYLR7 ag max-min
# Record of COc1ccc(OC)c(NC(=O)C(C)OC(=O)c2ccsc2)c1 (stereo unspecified) : 1, -2
# Record of Cc1ccc(CN2CC(C(=O)N(C)Cc3noc(C)n3)CC2=O)cc1 (stereo unspecified) : -1, -1
# Record of COc1ccccc1N1CC(NC(=O)CCc2c(C)nn(C)c2C)CC1=O (stereo unspecified) : 10, 8
# Record of Cc1cc(CN2CCC(CNC(=O)Nc3ccccc3)C2)oc1C (stereo unspecified) : 7, 7
# Record of CCOC(=O)C1(Cc2cccc(Cl)c2)CCCN(C(=O)CCn2cccn2)C1 (stereo unspecified) : 2, -1

# Part of the list above, with each value named.
16: Cc1ccc(NC(=O)NC(C)C2CCN(C)CC2)cc1OC(F)F (stereo unspecified)
  NPYLR7 ag: 9
  NPYLR7 ag max-min: 5
17: CCOC(=O)CCc1n[nH]c(=O)c2ccccc12
  NPYLR7 ag: 7
  NPYLR7 ag max-min: -2

# Following part:
25: c1nc(NC2CCCCCC2)c2c3c(sc2n1)CCC3
26: COc1ccc(C2c3ccsc3CCN2C(=O)CN(C(=O)c2cccc(Br)c2)C(C)C)cc1 (stereo unspecified)
27: Cc1nc(SCC(=O)NCCc2ccccc2)c2oc3ccccc3c2n1
28: CN(Cc1nc2ccc(Cl)cc2[nH]1)C(=O)c1ccccc1C1CCNC1 (stereo unspecified)
29: O=C(CCCc1nc(C2CC2)no1)N1CCC2(CCCCC2)CC1
30: COc1ccc(Br)cc1C=C(C#N)C(=O)C(C)(C)C
31: CC(C)S(=O)(=O)Oc1ccc(CN(CCN(C)C)C(=O)c2cccc(F)c2)cc1
32: C=CC[C@@H]1CC=C[C@@H](C)N1C(=O)c1cc(C)c(C)c(S(N)(=O)=O)c1
entry no. | 25 | 26 | 27 | 28 | 29 | 30 | 31 | 32
NPYLR7 ag | 0 | 19 | -9 | 3 | 10 | 2 | 18 | 13
NPYLR7 ag max-min | -1 | 26 | -9 | 3 | 4 | 8 | 19 | 3

33: CCN(Cc1ccc2c(c1)OCCO2)C(=O)CSc1nnc(NC)s1
34: O=C(c1ccnc(Cl)c1)N1CCCC(Nc2ccc(F)cc2)C1 (stereo unspecified)
35: Cc1nn(CC(=O)N(c2ccccc2)C(C)C)c(C)c1S(=O)(=O)N1CCC(C)CC1
36: CCOC(=O)c1c(C)[nH]c(C)c1C
37: Cc1ccc2nc(-c3ccccc3C)c(NC(=O)CC(C)(C)C)n2c1
38: CCOC(=O)N1CCc2c(sc(NC(=O)c3cccs3)c2-c2nc3ccccc3s2)C1
39: CCOC(=O)C(=O)N1[C@@H](c2ccco2)[C@@H](C(=O)OCC)C[C@]12CCCCN(CCO)C2=O
40: COc1ccc(C2NC(=O)N(C)C3=C2C(=O)N(Cc2ccccn2)C3)cc1 (stereo unspecified)
entry no. | 33 | 34 | 35 | 36 | 37 | 38 | 39 | 40
NPYLR7 ag | -2 | -3 | -1 | 3 | -5 | 1 | 6 | -1
NPYLR7 ag max-min | -3 | -4 | -4 | 2 | 2 | -2 | 13 | 9

41: C=CCn1nnc(NC(=O)c2cc(C)cc(C)c2)n1
42: COc1ccccc1OCC1CN(C(=O)Cc2ccsc2)CCO1 (stereo unspecified)
43: CN(CC(=O)Nc1ccc(F)cc1)Cc1nc(-c2cccs2)no1
44: C=CCn1c(SCC(=O)NCc2ccc3c(c2)OCO3)nc2sc3c(c2c1=O)CCC3
45: Brc1ccc(C=NN2CCN(Cc3cccc4ccccc34)CC2)s1
46: O=C(NCc1nc(Cc2cccs2)no1)c1cccc2ccnn12
47: COc1ccccc1-n1c(SCc2ccc(C(=O)NC3CC3)cc2)nnc1-c1ccc(C)cc1
48: CN1CCCN(c2nc(-c3ccccc3)c3ccccc3n2)CC1
entry no. | 41 | 42 | 43 | 44 | 45 | 46 | 47 | 48
NPYLR7 ag | -2 | 21 | -17 | -4 | -5 | -2 | 17 | -1
NPYLR7 ag max-min | -3 | 26 | -16 | -7 | -11 | -5 | 16 | -5

49: CN(Cc1cccs1)C(=O)CN1C(=O)CS/C1=C\C(=O)C(C)(C)C
50: O=C(O)CC1CNCCN(C(=O)c2cc3c(s2)CCCCC3)C1 (stereo unspecified)
51: c1csc(-c2nccn2Cc2ccccc2-n2cccn2)c1
52: CCOC(=O)N1CCC(NC2CCN(c3cccc(NC(=O)CC4CCCC4)c3)CC2)CC1
53: CC(C)C(=O)N(Cc1ccco1)Cc1ccccc1OS(C)(=O)=O
54: CCN(CCc1ccccn1)C(=O)c1ccc2nc(-c3ccc4c(c3)OCO4)[nH]c2c1
55: CC(C)c1cccc(C(C)C)c1NC(=O)N(CC(=O)N1CCc2sccc2C1c1ccccc1)C(C)C (stereo unspecified)
56: CCNc1nc(Nc2cc(C)cc(C)c2)c2cnn(-c3ccccc3)c2n1
entry no. | 49 | 50 | 51 | 52 | 53 | 54 | 55 | 56
NPYLR7 ag | 8 | 26 | 10 | 4 | 16 | -2 | 16 | 1
NPYLR7 ag max-min | 1 | 22 | 9 | 1 | 8 | -3 | 17 | -1

57: COc1cc(OC)cc(C(=O)N2CCN(c3cccc(C(F)(F)F)c3)C(=O)C2C)c1 (stereo unspecified)
58: CC(C)CN1CCC(C(=O)NNC(=O)c2ccccc2F)C1 (stereo unspecified)
59: OC(CN(Cc1cscn1)C1CC1)c1ccc(F)cc1 (stereo unspecified)
60: Cc1nc(-c2nccn2Cc2ccc3c(c2)CC(C)(C)O3)co1
61: O=C(Nc1ccccc1)c1cnc2ccccc2c1C(F)(F)F
62: CC(NC(=O)NCC(=O)c1ccc(F)cc1)C1CC2CCC1C2 (stereo unspecified)
entry no. | 57 | 58 | 59 | 60 | 61 | 62
NPYLR7 ag | 1 | 4 | -1 | 25 | 12 | 3
NPYLR7 ag max-min | 5 | 1 | -2 | 6 | 3 | 2

# 4 entries from above, with tabs.
entry	compound	NPYLR7 ag	NPYLR7 ag max-min
28	CN(Cc1nc2ccc(Cl)cc2[nH]1)C(=O)c1ccccc1C1CCNC1 (stereo unspecified)	3	3
29	O=C(CCCc1nc(C2CC2)no1)N1CCC2(CCCCC2)CC1	10	4
30	COc1ccc(Br)cc1C=C(C#N)C(=O)C(C)(C)C	2	8
31	CC(C)S(=O)(=O)Oc1ccc(CN(CCN(C)C)C(=O)c2cccc(F)c2)cc1	18	19

# This is a subset. The share of hits here may be higher or lower than overall.
